Menin-MLL FL inh = inhibitors of human menin-MLL interaction, wild-type MLL peptide | 290,000 tested, under 10 active | Fluorescence polarization, fluorescein-MLL peptide displacement from menin | FP activity change, % at 61.4 µM; inconclusive = falling polarisation curve, or a change in total fluorescence; inactive = total fluorescence flat and polarisation flat or rising; no compound was filed as active; the % refers to the polarisation; negative = inhibition;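 also: % of control where 0% means no effect; inhibitors lower the polarisation; unlabelled MLL peptide was the positive control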
PINK1 expr mod = modulators of PINK1 expression; PINK1 immunofluorescence, high-content cytometry, 24 h; 0.2% of 410,000 active; Potency, µM (top dose mostly 76.6 µM), inactives show at the top dose activation (PINK1 increase), most hits filed as activators; AID 624263; active = well fitted activation curve with a large enough effect; inconclusive = small, poorly fitted or top-dose-only effect; inactive = flat fitted curve, though single readings scatter; cell line not stated here;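 also: potency is read from the fitted curve at half-maximal effect; % of control where 0% means no effect; nearly all actives have a fitted effect of over 65% in size; a mitochondrial uncoupler was the plate control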
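Measures PINK1 amount and localization on or inside mitochondria by immunofluorescence. Stable cells get compounds at 5 concentrations for 24 hours before fixation and staining; CCCP controls included.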
Sfp PPTase inh = Sfp phosphopantetheinyl transferase inhibition; Q9F4F7; Biochemical Sfp PPTase activity, qHTS; Potency, µM, for the others: max response, negative = inhibition, hits mostly inhibitors; 3.5% of 310,000 active; active = well fitted inhibition curve with a large enough effect; inconclusive = small, poorly fitted or top-dose-only effect, or another doubt; inactive = no such curve, though single readings can be large or run the other way;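 also: the enzyme is Sfp with the accession as filed and its product quenches rhodamine fluorescence; potency is read from the fitted curve at half-maximal effect; 0% = enzyme reaction without inhibitor and -100% = no enzyme wells; top concentration of the series not given in the record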
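Fluorescence-quenching assay: 15 nM Sfp-PPTase preincubated 15 min at room temperature with compound, then 5 uM rhodamine-CoA and 12.5 uM BHQ-2-labelled YbbR peptide added. Fluorescence (ex 525/em 598 nm) read at start and after 30 min; difference gives rate.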
ClpP mod = qHTS Assay for Activators of ClpP. 1.9% of 340,000 active. Potency, µM (doses to about 57.5 µM), inactives show at the top dose activity change, negative = active. ATP-dependent Clp protease proteolytic subunit (Bacillus subtilis (strain 168)), P80244. purified B. subtilis ClpP, FRET peptide cleavage, 20 min. AID 651965, 2013; active = well fitted falling curve with a large enough effect; inconclusive = small, poorly fitted or top-dose-only effect; inactive = no such curve, though single readings can be large or run the other way; also: potency is read from the fitted curve at half-maximal effect; the source files actives as falling curves though it sought activators and does not explain the sign; nearly all actives have a fitted effect of over 65% in size; many hits overshoot -100%
Target sequence (P80244 whole entry, looked up): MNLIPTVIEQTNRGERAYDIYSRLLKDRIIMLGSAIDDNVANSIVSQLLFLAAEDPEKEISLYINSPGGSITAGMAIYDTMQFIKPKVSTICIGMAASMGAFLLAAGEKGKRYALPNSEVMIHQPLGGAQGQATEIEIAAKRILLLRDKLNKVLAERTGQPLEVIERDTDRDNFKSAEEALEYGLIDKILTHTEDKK
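ClpP 10 microg/mL final, pH 8 Tris/KCl buffer with BSA, glycerol, Tween-20; compound pinned in; FRET-FV substrate; RT 20 min; Ex320/Em430; ΔFRET vs ADEP 5.8 microM, DMSO, no enzyme.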
D2 ag = activates the human D2 dopamine receptor | 0.084% of 360,000 active | P14416 | DiscoveRx PathHunter D2 beta-arrestin, luminescence, 90 min; 100% = 57 uM dopamine signal | activation, % (test concentration not listed); in the data active = activation above about 40%; inconclusive = about 15% to 40%; inactive = below about 15%; also: compound concentration not given in the record; the text of the record calls up to 30% inactive
Target sequence (P14416 whole entry, looked up): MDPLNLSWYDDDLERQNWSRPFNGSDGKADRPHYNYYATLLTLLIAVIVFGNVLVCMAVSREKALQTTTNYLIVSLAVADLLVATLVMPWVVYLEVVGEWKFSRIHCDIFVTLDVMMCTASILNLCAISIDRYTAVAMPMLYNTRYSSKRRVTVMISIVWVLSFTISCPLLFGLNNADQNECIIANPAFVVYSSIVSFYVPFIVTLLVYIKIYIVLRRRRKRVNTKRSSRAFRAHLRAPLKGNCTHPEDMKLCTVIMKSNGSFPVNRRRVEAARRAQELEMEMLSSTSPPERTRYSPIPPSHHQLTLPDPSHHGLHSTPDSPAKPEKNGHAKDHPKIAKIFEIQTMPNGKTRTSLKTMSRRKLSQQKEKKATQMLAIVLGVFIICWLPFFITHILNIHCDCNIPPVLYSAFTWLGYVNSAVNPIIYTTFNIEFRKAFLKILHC
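Agonist mode: compounds alone added to overnight-plated D2 PathHunter cells for 90 min at 37 C, with 57 uM final dopamine (EC100) defining full response. Beta-arrestin recruitment detected by chemiluminescent reagent, read after 1 h at ambient temperature.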
gsp antag = gsp mutant antagonism | gsp-mutant cells, cAMP HTRF, 30 min; control for the full effect not named in the record | Potency, µM (doses to about 76.9 µM), inactives show top-dose activity change, negative = inhibition, usual class: inhibitors | 0.4% of 340,000 active | AID 624288; active = falling curve of any shape with a large fitted effect; inconclusive = falling curve, mostly with a smaller effect; inactive = flat or rising curve; cell line not stated here;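 also: intracellular cAMP measured with PDE inhibitor Ro 20-1724 present during compound exposure; potency is read from the fitted curve at half-maximal effect; % is scaled to controls: 0 for no effect and ±100 for the full control effect; nearly all actives have a fitted effect of over 65% in size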
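HTRF cAMP measurement after 30 min RT detection following 30 min, 37C compound treatment alongside […] (added as 300 uM solution) in G418-selected cells seeded at 2000/well and grown 16–24 h.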
gsp agonist = agonists of gsp mutant (McCune-Albright syndrome). gsp mutant cells, cAMP HTRF, 30 min; control for the full effect not named in the record. Potency, µM (series often up to 76.9 µM), for the others: top-dose activation (cAMP increase), hits mostly activators. 0.13% of 340,000 active; active = well fitted activation curve with a large enough effect; inconclusive = small, poorly fitted or top-dose-only effect, or another doubt; inactive = no such curve, though single readings can be large or run the other way; cell line not stated here;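 also: phosphodiesterase inhibitor Ro 20-1724 added with compounds to block cAMP breakdown; potency is read from the fitted curve at half-maximal effect; nearly all actives have a fitted effect of over 60% in size; about a fifth of the inactives were tested at one dose only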
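Cells stably selected in G418 were plated at 2000/well, grown 16-24 hr, then given compounds in DMSO with the PDE inhibitor […] (300 uM solution added) for 30 min at 37C; cAMP was read by HTRF.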
Active calls of the source: *; ? = inconclusive; nt = not tested or not shown; & = joins results of further samples; [ ] = another dose, or the depositor's remark. No enrichment for hits, and some 5.1% of all compounds hit somewhere here.

SMILES	Menin-MLL FL inh	PINK1 expr mod	Sfp PPTase inh	ClpP mod	D2 ag	gsp antag	gsp agonist
Cc1ccccc1C(C(=O)NC1CCCC1)N(C(=O)Cc1cccs1)c1ccc2c(c1)OCCO2 (stereo not drawn)	4.2	nt	21.4%	-5.6%	0.0	-5.6%	-2.9%
COCCN1CCn2c(nc3cc(NC(=O)c4ccc(OC)cc4)ccc32)C1	4.4	-1.6%	1.4%	?	-0.2	6.4%	-2.8%
O=C1CC(N2CCN(c3ccc(Cl)cc3)CC2)C(=O)N1c1ccccc1 (stereo not drawn)	1.2	-0.5%	-6.9%	nt	7.8	5.3%	-34.7%[inhibitor]
Cc1ccc(CNC(=O)C2CCCN(S(=O)(=O)c3c(C)noc3C)C2)cc1 (stereo not drawn)	0.4	3.8%[38.3 µM]	2.9%	0.1%	2.9	-1.0%	-45.4%[inhibitor]
Cc1ccc(CN2C(=O)CCC2C(=O)NC2CCCC2)cc1 (stereo not drawn)	5.4	0.7%	1.5%	1.0%	0.2	0.1%	0.0%
CCc1ccc(NC(=O)C2=CC=CN3CCS(=O)(=O)N=C23)cc1	nt	-1.2%	nt	-1.8%	-4.5	15.8%	-4.2%
CN1CCN(S(=O)(=O)c2cccs2)CC1	-0.1	-0.8%	12.1%	nt	-1.7	-4.8%	8.7%[15.4 µM]
Cc1cc(C)nc(SCCS(=O)(=O)Cc2ccc(Cl)cc2)n1	-1.5	-0.2%	3.2%	-3.1%	-0.7	-0.6%	23.7%
CCCC(=O)N1CCCC1(C)C(=O)Nc1cc(C)ccc1C (stereo not drawn)	nt	1.2%	nt	0.1%	-4.3	nt	nt
c1ccc2c(c1)[nH]c1c3ccccc3sc21	5.9	2.3%	11.3%	-8.6%	-4.0	-12.1%	9.4%
Cc1ccc(-n2ncc(C(=O)Nc3cc(Cl)ccc3Cl)c2C2CCNCC2)cc1	6.2	-0.1%	4.6%	nt	-4.2	8.0%	-4.1%[15.4 µM]
CCC1Nc2ncnc(N3CCc4ccccc4C3)c2N(Cc2ccc(Cl)cc2)C1=O (stereo not drawn)	nt	2.3%	nt	-8.7%	-2.9	-4.3%	?
COc1ccc(NC(=O)CC2C(=O)N(Cc3ccco3)C(=S)N2C(C)C)cc1 (stereo not drawn)	-8.3	0.1%	-3.1%	-0.1%	-1.8	-11.6%	-28.3%
Cc1ccc(CN2C(=O)C(CC(C)C)Nc3ncnc(N4CCOCC4)c32)cc1 (stereo not drawn)	nt	0.8%&2.9%	nt	-0.2%&-1.4%	-1.6&-3.4	10.2%	-42.6%[inhibitor]
COc1ccc([C@H]2C(C#N)=C([S-])N[C@](C)(O)[C@@H]2[n+]2ccccc2)cc1	?	0.4%	25.1µM*	-3.5%	-3.3	-1.2%	29.3%
CSc1ccc(CN(C)CC(=O)NC(=O)NCCC2=CCCCC2)cc1	nt	1.9%	nt	3.0%	1.1	-22.2%	4.9%
C/C(=N\NC(=O)Nc1ccccc1)c1ccccc1	0.6	-0.2%	9.8%	-2.6%	-3.3	2.1%	25.6%[15.4 µM]
O=C(NCC1CCCO1)c1cc(S(=O)(=O)N2CCOCC2)c(Cl)cc1Cl (stereo not drawn)	-0.4	2.6%	5.2%	-0.6%	2.1	-2.0%	-6.9%[15.4 µM]
O=C(CCNS(=O)(=O)c1ccc(Br)cc1)N1CCN(c2ccccc2O)CC1	nt	0.5%	nt	nt	1.9	-8.6%	12.4%[15.4 µM]
CC(C)CC(C)NC(=O)c1ccc(C(F)(F)F)cc1 (stereo not drawn)	-0.9	8.8%	14.2%	1.9%	3.4	7.1%	31.2%
CCN(C(=O)CSc1nnc(-c2ccncc2)n1-c1ccccc1)C1CCS(=O)(=O)C1 (stereo not drawn)	-4.0	-0.8%	-1.8%	-2.0%	-3.8	-15.5%	17.3%[15.4 µM]
CSCCC(=O)Nc1cc(S(=O)(=O)N2CCOCC2)ccc1N1CCN(C)CC1	-3.3	-2.1%	20.2%	nt	-4.2	11.5%	5.8%
COC(=O)c1ccc(CN(C(C)=O)c2ccccc2)o1	7.4	-1.8%	8.2%	-2.1%	-0.6	12.4%	-23.2%
CCCC12CN3CC(C)(CN(C1)C3c1ccc([N+](=O)[O-])o1)C2=O (stereo not drawn)	2.3	-0.9%	2.7%	0.4%	10.2	-2.4%	-9.1%[15.4 µM]
O=c1c2ccccc2nnn1Cc1nnc(-c2ccccc2Br)o1	-1.0	0.2%	-7.3%	-0.3%	-4.3	4.9%	-5.2%
COc1ccc(OC)c(NC(=O)CN2C(=O)c3ccccc3S2(=O)=O)c1	15.8	10.9%[38.3 µM]	4.8%	-0.7%	-0.4	-4.3%	-3.3%
O=C(Cn1cncn1)N/N=C/c1cc([N+](=O)[O-])ccc1O	1.4	-1.6%	25.5%	0.1%	-10.2	8.4%	-0.8%
COc1ccc(C(=O)CN2CCN(c3cc(C)nc4ccccc34)CC2)cc1	-0.1	3.7%	0.2%	-2.3%	-4.6	-20.9%	?
CCOC(=O)C1=C(CS(=O)(=O)c2ccc(F)c(C)c2)NC(=O)NC1c1ccc(O)c(O)c1 (stereo not drawn)	-1.3	0.1%	-27.4%	-2.0%	-2.3	5.6%	?
COC(=O)C(NC(=O)c1ccccc1)=C1CCCCC1	0.3	-2.0%	12.4%	-0.9%	0.3	-0.2%	?
COc1ccc(NC(=O)c2sc(=S)[nH]c2N)cc1	0.0	0.8%	56.2µM*	-2.8%	-1.6	-5.6%	8.8%
O=S(=O)(/C=C/c1ccccc1)Oc1ccccc1	-0.2	2.4%[38.3 µM]	-3.0%	-0.7%	0.1	-15.3%	-23.7%
COc1ccc(NC(=O)C[C@H]2C(=O)N(CCc3ccccc3)C[C@@H]2Cc2ccccc2)cc1	nt	1.7%	nt	1.0%	-0.6	nt	?
CCCS(=O)(=O)NC(=O)C1(C)CCCN(C(=O)c2ccccc2F)C1 (stereo not drawn)	nt	0.4%	nt	-0.4%	-6.1	nt	nt
CCCCn1c(C(C)O)nc2ccccc21 (stereo not drawn)	2.9	-0.7%	8.8%	-1.6%	-3.5	-5.0%	0.0%
O=C(C1COc2ccccc2O1)N1CCN(c2ccc(C(F)(F)F)cn2)CC1 (stereo not drawn)	nt	0.6%	nt	-22.2%	2.2	-7.8%	-39.2%[inhibitor]
O=C(NC(=S)NC1CCCCCC1)c1cncc(Br)c1	3.2	2.0%	-3.0%	-4.8%	-1.6	-12.7%	-20.0%
O=C(C1CC(=O)N(c2ccc(F)cc2)C1)N1CCOCC1 (stereo not drawn)	-5.1	0.2%	7.8%	nt	-2.7	8.0%	11.2%
CCOC(=O)c1cc2ccc3ccccc3c2oc1=O	0.3	1.7%	0.6%	3.6%	-3.8	-14.2%	-28.4%
CCOC(=O)c1c(C)[nH]c(C)c1S(=O)(=O)NCCc1sccc1C	-1.0	-0.5%	12.7%	1.9%	-0.2	5.6%	4.8%
COc1ccccc1CNC(=O)CN1C(=O)NC2(CCCCCC2)C1=O	nt	2.5%	nt	1.1%	-2.5	11.5%	7.5%[15.4 µM]
COc1cc(/C=N/NC(=O)c2ccc(NS(=O)(=O)c3cccs3)cc2)cc(OC)c1O	nt	-0.8%	nt	-2.7%	4.7	0.8%	-0.8%
CC(C)C[C@@H](CNCC(=O)[C@H](CC(C)C)NC(=O)c1[nH]cnc1C(=O)N[C@@H](C)CN)NC(=O)c1nc[nH]c1C(=O)N[C@@H](CC(=O)O)C(=O)O	nt	0.7%	nt	0.2%	-2.2	13.9%	nt
Cc1ccc(S(=O)(=O)N2CCC3(CC2)OCCO3)c(C)c1	nt	-0.1%	19.7%	-0.3%	3.9	2.0%	29.9%
CCCN(CCC)CCNC(=O)Cn1cnc2sc(C)c(S(=O)(=O)N3CCOCC3)c2c1=O	nt	-0.5%	nt	0.6%	-2.5	5.8%	-16.0%
C#CCOCCOCCOCCNc1nc(N2CCN(C(=O)[C@H](CCC(=O)O)n3cc(C(N)Cc4ccc(O)cc4)nn3)CC2)nc(N2CCN(C(=O)[C@H](CCC(=O)O)n3cc(C(N)Cc4ccc(O)cc4)nn3)CC2)n1 (stereo partly drawn)	-6.0	1.3%	-7.5%	0.5%	0.1	7.6%	-21.6%
CCN(CC)CCCN=Cc1c(O)n(-c2ccc(C)cc2)c(=O)c2ccccc12	1.3	-0.3%	19.3%	nt	-3.0	-2.2%	7.9%[15.4 µM]
NC(=O)CNC(=O)C1CCCc2c1[nH]c1ccc(Cl)cc21 (stereo not drawn)	-3.4	-1.6%[38.3 µM]	8.5%	-5.2%	0.0	2.3%	-28.4%
CC(C)(C)c1ccc(-n2ncc3c2CCCC3NC(=O)CCN2CCCCC2=O)cc1 (stereo not drawn)	nt	0.8%	-3.1%	1.1%	3.1	-5.5%	-8.6%[15.4 µM]
O=C(NCc1ccccc1)C(c1cccnc1)N(C(=O)c1csnn1)c1ccccc1 (stereo not drawn)	1.4	0.8%	8.0%	nt	-4.7	3.2%	7.0%
NC(=O)CSc1n[nH]c(=O)n1CCc1ccccc1	8.1	-0.5%	6.7%	nt	1.8	12.4%	28.4%[15.4 µM]
CC(C)CCNC(=S)Nc1ccccn1	2.6	5.5%	-42.7%	2.2%	-0.3	3.9%	1.4%
CC(=O)N(NC(=O)c1ccccc1Cl)C1CC(=O)N(c2ccc(C)cc2)C1=O (stereo not drawn)	-2.3	nt	20.8%	-0.1%	0.0	1.4%	28.7%
O=C(COC(=O)COc1ccccc1)Nc1ccc(OC(F)(F)F)cc1	-0.2	-0.7%	19.2%	0.9%	-0.6	-14.4%	-14.9%
CCCn1c(N)c(N2CCCCC2)c(=O)n(CC(=O)Nc2ccccc2C)c1=O	3.5	0.9%	2.4%	-1.7%	1.5	5.9%	-2.2%
CC(=O)NNC(=O)c1sc(=S)n(C)c1C	-0.7	3.3%	10.8%	-0.1%	-5.1	11.9%	-18.8%[15.4 µM]
O=C(Nc1ccccc1C(=O)NCc1cccnc1)c1ccco1	4.8	-0.2%	?	-0.6%	-2.1	-1.4%	3.6%
O=C(CSc1nnc(-c2ccccc2)n1Cc1ccccc1)N1CCOCC1	0.2	-1.3%	16.2%	-0.5%	-3.0	4.0%	3.0%
COc1ccc(CNS(=O)(=O)NCc2ccccc2F)cc1	0.1	2.4%	4.4%	nt	-3.2	-2.1%	-44.5%[inhibitor]
CCOC1=C/C(=C/c2c(N)n3nc(CC(=O)N4CCCCC4)sc3nc2=O)C=CC1=O	?	-1.9%	14.3%	1.5%	-5.1	-32.7%	-0.5%
